# Screening results from PubChem.
# RE007 growth inh: less growth of the S. pombe RE007 Vpr strain. S. pombe RE007 Vpr strain, BacTiter-Glo ATP luminescence, 24 h; control for the full effect not named in the record. actives 0.21% (n = 360,000). AID 651644. Potency, µM (series often up to 92.2 µM), inactives show top-dose activity change, negative = less growth; active = well fitted falling curve with a large enough effect; inconclusive = small, poorly fitted or top-dose-only effect; inactive = no such curve, though single readings can be large or run the other way;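 note: % is set by controls: 0 for no effect and ±100 for the full control effect; nearly all actives have a fitted effect of over 50% in size; the assay follows cell death caused by Vpr and the record does not say whether a fall means rescue or toxicity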
#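 Fission yeast RE007 carrying one integrated HIV-1 vpr copy, seeded at OD 0.01 in PMG+AL medium with 23 nL pinned compound. Grown 24 h at 30 degrees; viability read by BacTiter-Glo luminescence after 5 min.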
# Cruzain inh Det: cruzain (T. cruzi) inhibition with detergent; P25779; purified cruzain, Z-FR-AMC fluorescence, 0.01% Triton; Potency, µM, for the others: max response, negative = inhibition, actives largely listed as inhibitors; actives 0.43% (n = 200,000); AID 1478; active = well fitted curve in the direction sought with a large enough effect; inconclusive = small, poorly fitted or top-dose-only effect, or another doubt; inactive = no such curve, though single readings can be large; an effect the other way counts as inactive or inconclusive;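 note: plate controls were neutral wells for no effect and buffer without enzyme for full effect; nearly all actives have a fitted effect of over 40% in size; top concentration of the series not given in the record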
# Target sequence (P25779 123-467 limits assumed): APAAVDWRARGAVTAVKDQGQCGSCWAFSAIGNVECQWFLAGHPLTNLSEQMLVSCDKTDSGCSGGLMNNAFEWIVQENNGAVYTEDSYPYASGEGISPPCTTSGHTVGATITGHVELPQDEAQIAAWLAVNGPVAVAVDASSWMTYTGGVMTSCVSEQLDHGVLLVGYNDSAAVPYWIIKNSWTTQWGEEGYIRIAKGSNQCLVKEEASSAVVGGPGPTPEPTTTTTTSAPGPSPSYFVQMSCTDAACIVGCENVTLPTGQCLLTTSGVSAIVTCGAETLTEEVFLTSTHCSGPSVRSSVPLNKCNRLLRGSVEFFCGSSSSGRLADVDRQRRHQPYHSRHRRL
#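 Read-out: AMC fluorescence (360 nm excitation, 450 nm emission), four reads over 2 min, first-to-third difference used. Conditions: cruzain 1.5 nM, Z-FR-AMC 2 uM, pH 5.5 acetate, 5 mM DTT, 0.01% Triton X-100.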
# Marburg entry inh: Marburg virus entry inhibition; Marburg virus pseudotyped entry inhibition, cell reporter; control for the full effect not named in the record; about a third of the inactives were read at about 46 µM; Potency, µM (highest dose often 37.8 µM), for the others: at the highest dose activity change, negative = inhibition, actives largely listed as inhibitors; actives 1.8% (n = 300,000); active = well fitted inhibition curve with a large enough effect; inconclusive = small, poorly fitted or top-dose-only effect, or effect the other way; inactive = flat fitted curve, though single readings scatter; tested in HEK293 cells; about a fifth of its hits are not listed in these tables; note: % is set by controls: 0 for no effect and ±100 for the full control effect; luciferase read-out
# LASV entry inh: Lassa virus entry inhibition | Lassa virus pseudotype entry inhibition, cell reporter; control for the full effect not named in the record | Potency, µM (highest dose often 37.9 µM), for the others: at the highest dose activity change, negative = inhibition, hits mostly inhibitors | actives 1.2% (n = 300,000); active means well fitted inhibition curve with a large enough effect; inconclusive means small, poorly fitted or top-dose-only effect, or effect the other way; inactive means flat fitted curve, though single readings scatter; tested in HEK293 cells; note: % is set by controls: 0 for no effect and ±100 for the full control effect; nearly all actives have a fitted effect of over 50% in size; luciferase read-out
# SARS PLpro yeast: inhibitors of SARS-CoV papain-like protease in yeast; S. cerevisiae expressing SARS-CoV PLpro, growth rescue; control for the full effect not named in the record; Potency, µM (titrated, usually from 32.9 µM), without a hit: top-dose activity, positive = growth rescue; actives 0.19% (n = 330,000); note: 0% is about no effect; nearly all actives have a fitted effect of over 55% in size; growth read by luminescence after 48 h
# Cruzain inh noDet: cruzain (T. cruzi) inhibition without detergent. actives 2.3% (n = 200,000). AID 1476. purified cruzain, Z-FR-AMC fluorescence, no detergent. P25779. Potency, µM, for inactives: max response, negative = inhibition, hits mostly inhibitors; active = well fitted curve in the direction sought with a large enough effect; inconclusive = small, poorly fitted or top-dose-only effect, or another doubt; inactive = no such curve, though single readings can be large; an effect the other way counts as inactive or inconclusive;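 note: plate controls were enzyme without inhibitor for no effect and buffer without enzyme for full effect; nearly all actives have a fitted effect of over 40% in size; top concentration of the series not given in the record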
#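 Detergent-free condition (0.00005% Triton X-100) in acetate buffer pH 5.5 with DTT. 1.5 nM enzyme and compound were pre-mixed 15 min, then 2 uM Z-FR-AMC substrate added; reaction progress from fluorescence change between first and third reads (60 s).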
# StopGo reporter: lowers the luciferase signal of an FMDV 2A StopGo reporter. human cells with a luciferase reporter of 2A StopGo recoding; control for the full effect not named in the record. Potency, µM (top dose mostly 57.9 µM), for the others: at the top dose signal change, negative = less light. actives 1.2% (n = 410,000). AID 1159524; active = well fitted falling curve with a large enough effect; inconclusive = small, poorly fitted or top-dose-only effect; inactive = no such curve, though single readings can be large or run the other way; tested in HEK293T cells; note: % is set by controls: 0 for no effect and ±100 for the full control effect; nearly all actives have a fitted effect of over 45% in size; luciferase light after 4 h
# NS1 inh: blocks influenza NS1 protein function. actives 0.4% (n = 270,000). S. cerevisiae slowed by influenza A NS1, growth recovery by OD600. AID 2326. Potency, µM (series often up to 46.1 µM), for inactives: at the highest dose activity, positive = more growth; note: actives are rising curves; nearly all actives have a fitted effect of over 50% in size
#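 OD600 was taken as the measure of yeast growth restored by compound in an NS1-expressing S. cerevisiae strain. Cells had been washed out of glucose medium and diluted 1:100 into galactose -URA medium, pH 6.0.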
# * marks the source's active call; other numbers are inactive results; ? = inconclusive; . = no result given; [ ] = dose if it differs, or a comment. Unless noted, calls come from the whole dose curve; as a rule, active means well fitted rising curve with a large enough effect; inconclusive means small, poorly fitted or top-dose-only effect; inactive means no such curve, though single readings can be large or run the other way. Potency is the fitted concentration of half-maximal effect.
item	smiles	RE007 growth inh	Cruzain inh Det	Marburg entry inh	LASV entry inh
1	Cc1cc(S(=O)(=O)N2CCCCC2CCNC(=O)C(=O)NCc2cccnc2)ccc1F (stereo not given)	-5.8%	.	-12.1%	-8.6%
2	Cc1ccc(C(C(=O)NC(C)(C)C)N(CCCN2CCOCC2)C(=O)c2ccc(-c3ccccc3)[nH]2)o1 (stereo not given)	-0.8%	.	-3.4%[46.1 µM]	11.9%
3	CCOc1ccccc1C(=O)OCC(=O)NCCc1ccc(OC)cc1	19.7%	.	4.3%	-7.8%
4	O=C(CCC(=O)OCC(=O)c1ccc(Cl)cc1)NC1CCCCC1	2.3%	-6.7%	-1.5%	1.2%
5	COc1ccc(-n2c(SCC(=O)Nc3ccc(NC(C)=O)cc3)nc3ccccc3c2=O)cc1	-3.0%	.	.	.
6	O=C(CSc1ccccc1)N1CCC2(CC1)OCCO2	12.3%	4.9%	17.3%	1.1%
7	CCCN(C(=O)CSc1cc(-c2ccccc2)c2ccc(OC)cc2n1)C1CCS(=O)(=O)C1 (stereo not given)	0.3%	-5.7%	-8.3%	3.1%
8	CC(C)C(=O)N1CCc2cc(-c3csc(N)n3)ccc21	-2.7%	-2.1%	?	?

item	SARS PLpro yeast	Cruzain inh noDet	StopGo reporter	NS1 inh
1	-0.6%	.	?	.
2	6.3%	.	21.4%	0.6%
3	-5.5%	.	-25.2%	.
4	3.6%	-8.1%	9.6%	-6.1%
5	0.8%	.	-11.0%	4.8%
6	-1.1%	-9.6%	47.9%[activator]	-6.4%
7	6.2%	?	-11.5%	22.6%
8	?	-18.6%	37.7%[activator]	-40.8%

# Remaining list, next part:
item	smiles	RE007 growth inh	Cruzain inh Det	Marburg entry inh	LASV entry inh
9	CSC1CCCCC1(O)CSc1nc2ccccc2o1 (stereo not given)	-17.7%	-3.5%	-1.4%	12.2%
10	C/C(=N\NC(=S)NCc1ccccc1)c1cccs1	-4.6%	.	6.2%[46.1 µM]	-5.6%
11	O=C(Nc1ccc([N+](=O)[O-])cn1)c1cccnc1	-8.0%	.	4.7%	2.3%
12	O=S(=O)(c1ccc(NCCc2c[nH]c3ccccc23)nc1)N1CCOCC1	-1.3%	-2.6%	-23.7%[46.1 µM]	7.4%
13	O=C(O)CCCNc1cc(N2CCN(C3CCCCC3)CC2)c2noc3c2c1C(=O)c1ccccc1-3	.	-4.2%	2.4%[46.1 µM]	?
14	NC(=O)C1C2C=CC(C2)C1c1ccccc1 (stereo not given)	13.1%	.	?	5.2%[46.1 µM]
15	Nc1cc(S(=O)(=O)Nc2ccc(Br)cc2)ccc1Cl	-5.0%	.	?	-24.0%
16	CCOC(=O)c1c(N)n(CCN2CCCCC2)c2nc3ccccc3nc12	12.9%	-16.4%	?	-18.1%

item	SARS PLpro yeast	Cruzain inh noDet	StopGo reporter	NS1 inh
9	-13.6%	-12.3%	.	-8.3%
10	-0.9%	.	88.2%[activator]	.
11	1.9%	.	15.2%	1.4%
12	8.4%	-5.7%	-11.2%	0.1%
13	.	10.8%	-6.9%	.
14	.	.	-2.1%	.
15	-2.6%	.	42.0%[activator]	-0.5%
16	-1.8%	-21.8%	.	-0.8%

# Limited to StopGo reporter, LASV entry inh and SARS PLpro yeast, for some of the entries so far:
item	Molecule	StopGo reporter	LASV entry inh	SARS PLpro yeast
13	O=C(O)CCCNc1cc(N2CCN(C3CCCCC3)CC2)c2noc3c2c1C(=O)c1ccccc1-3	-6.9%	?	.
14	NC(=O)C1C2C=CC(C2)C1c1ccccc1 (stereo not given)	-2.1%	5.2%[46.1 µM]	.

# (next part)
item	smiles	RE007 growth inh	Cruzain inh Det	Marburg entry inh	LASV entry inh
17	Cc1ccccc1NC(=O)c1cccc(S(=O)(=O)Oc2ccc([N+](=O)[O-])cc2)c1	11.4%	-1.1%	?	?
18	Cc1noc(C)c1C(=O)Nc1ccc(Cl)cc1C(F)(F)F	-1.0%	5.6%	22.0%	1.3%
19	COc1ccc(CCNC(=O)C2CCN(S(C)(=O)=O)CC2)cc1	0.1%	5.7%	4.5%	-0.9%
20	Cc1ccc(S(=O)(=O)N(C)c2ccc3ccccc3c2)cc1	0.5%	.	.	.
21	CCN(CC)CCCn1c(=S)[nH]c2cc(OC)c(OC)cc2c1=O	-14.2%	2.1%	?	-10.5%
22	COc1ccc2c(c1)c(C(=O)CN1CCN(C(=O)c3ccco3)CC1)c(C)n2C	7.1%	-4.8%	-0.6%	-3.1%
23	O=C(N/N=C/c1ccccc1O)C1CCCC1	-13.3%	.	?	-19.1%[46.1 µM]
24	Cn1c(=O)c2c(SCC(=O)NCC3CCCO3)nc(-c3ccccc3Cl)nc2n(C)c1=O (stereo not given)	-2.5%	.	1.0%	0.0%

item	SARS PLpro yeast	Cruzain inh noDet	StopGo reporter	NS1 inh
17	-3.5%	5.7%	.	-57.6%
18	-12.9%	3.8%	4.8%	4.1%
19	7.5%	2.7%	.	6.5%
20	0.2%	.	8.7%	-4.0%
21	5.7%	-3.4%	-17.9%	-1.7%
22	11.6%	7.9%	-16.5%	0.3%
23	-4.2%	.	17.0%	-10.7%
24	?	.	-22.9%	5.0%

# Next part
item	smiles	RE007 growth inh	Cruzain inh Det	Marburg entry inh	LASV entry inh
25	Cc1cccc(C2NC(c3cccc(C)c3)C(C)C(=O)C2C)c1 (stereo not given)	-10.0%	.	.	.
26	CCn1c2ccccc2c2nnc(SCC(=O)Nc3ccccc3OC)nc21	.	0.2%	.	?
27	Cc1c(N2C(=O)CSC2c2ccc([N+](=O)[O-])cc2)c(=O)n(-c2ccccc2)n1C (stereo not given)	9.0%	.	-0.9%[46.1 µM]	-3.1%[46.1 µM]
28	COc1ccc(C2c3c(n(C)c4ccccc34)C(=O)N2CC(=O)Nc2ccc(F)cc2)cc1 (stereo not given)	.	-6.3%	.	-11.9%[46.1 µM]
29	CC(C)CC(NC(N)=O)C(=O)OCC(=O)N(Cc1ccccc1)Cc1ccccc1 (stereo not given)	8.3%	.	-16.4%[46.1 µM]	3.3%
30	CCOc1cccc(-c2nnc(SCC(=O)Nc3cc(OC)cc(OC)c3)n2N)c1	-2.5%	2.6%	-28.6%	-0.1%
31	Cc1ccc(NC(=O)C2CCCN2S(=O)(=O)c2cccc3cccnc23)cc1C (stereo not given)	.	-3.0%	-6.4%[46.1 µM]	.
32	Cc1nn(Cc2ccc(F)cc2)c(C)c1NC(=O)c1cc2ncc(Br)cn2n1	-10.2%	.	.	.

item	SARS PLpro yeast	Cruzain inh noDet	StopGo reporter	NS1 inh
25	-2.7%	.	?	3.9%
26	.	-0.2%	-14.3%	.
27	-0.5%	.	-6.3%	1.7%
28	.	24.7%	-6.1%	.
29	-3.9%	.	-10.4%	.
30	-3.2%	-1.4%	-22.2%	7.6%
31	.	5.4%	-6.7%	.
32	0.1%	.	0.0%	3.2%

# The results go on.
item	smiles	RE007 growth inh	Cruzain inh Det	Marburg entry inh	LASV entry inh
33	NC(=O)CC[C@@H]1NC(=O)[C@@H]2CCCN2C(=O)c2cc([N+](=O)[O-])cc(F)c2NCCC[C@@H](C(N)=O)NC1=O	-8.1%	-3.3%	31.1%	0.6%
34	O=C(O)c1cc(/C=C/C(=O)c2cc(F)ccc2O)c2c(c1)COCO2	-16.7%	.	.	.
35	Cc1cccc(OCC(=O)Nc2cc(C)on2)c1	-1.0%	0.8%	24.4%	8.3%
36	O=C(NC(=S)NC1CC1)c1cccnc1	13.7%	5.4%	27.2%	-2.5%
37	COc1ccccc1NC(=O)Nc1cccnc1	?	.	8.9%[46.1 µM]	0.3%
38	COc1cc(/C=N/NC(=O)C(C)n2nnc3ccccc32)ccc1O (stereo not given)	16.0%	2.4%	0.0%	19.1%
39	Cc1noc(C)c1CSCC(=O)Nc1cc(S(=O)(=O)N2CCOCC2)ccc1OC(C)C	1.9%	.	8.1%	-13.9%
40	O=C(NCC(=O)N1CCc2ccccc2C1)c1ccccc1Cl	18.0%	.	?	?

item	SARS PLpro yeast	Cruzain inh noDet	StopGo reporter	NS1 inh
33	4.6%	-2.5%	-20.7%	17.1%
34	0.2%	.	?	6.7%
35	-10.9%	-13.6%	29.5%	-12.3%
36	-0.7%	3.5%	22.3%	-15.2%
37	-1.3%	.	25.2%	-0.7%
38	14.3%	0.2%	-18.3%	4.7%
39	7.7%	.	-3.1%	.
40	-1.7%	.	61.6%[activator]	-4.2%

# Next records
item	smiles	RE007 growth inh	Cruzain inh Det	Marburg entry inh	LASV entry inh
41	CCN(CC)C(=O)c1ccc(N2C(=O)C3CC=C(Cl)CC3C2=O)cc1 (stereo not given)	-4.9%	4.0%	-16.1%[46.1 µM]	4.5%
42	CNC(=S)N1CCN(S(=O)(=O)c2ccc3ccccc3c2)CC1	0.5%	.	-18.4%[46.1 µM]	?
43	COc1ccc(N2CC(C(=O)Nc3nnc(SCC(=O)NCC4CCCO4)s3)CC2=O)cc1 (stereo not given)	-9.4%	.	4.0%	7.4%
44	Cc1ccc(Cn2ccn(Cc3ccccc3C)c(=O)c2=O)cc1	.	-1.2%	.	-2.7%[46.1 µM]
45	COc1cccc2c1C(=O)O/C2=C/c1ccc2c(c1)OCO2	.	-18.8%	-4.3%	.
46	Cc1ccc(NC(=O)c2c(C)noc2-c2snnc2C)cc1	-1.4%	.	?	?
47	CCN1C(=O)CSc2ccc(C(=O)OC)cc21	6.1%	1.0%	-7.8%	10.3%
48	COc1ccccc1C(C[N+](=O)[O-])c1c[nH]c2ccccc12 (stereo not given)	33.2%	.	?	-16.4%
49	O=C(CSc1ncn[nH]1)Nc1cccc(S(=O)(=O)N2CCCCCC2)c1	-6.5%	-3.9%	?	?

item	SARS PLpro yeast	Cruzain inh noDet	StopGo reporter	NS1 inh
41	1.6%	6.0%	-9.9%	-11.0%
42	0.4%	.	11.2%	-9.7%
43	.	.	-14.6%	.
44	.	6.9%	2.8%	.
45	-15.3%	-6.5%	.	-16.1%
46	-7.1%	.	-7.3%	-3.4%
47	1.6%	6.5%	-13.8%	-5.0%
48	-2.2%	.	?	-2.4%
49	?	14.2%	-29.6%	?
